Bioassay records (PubChem BioAssay)
Beta apoptosis – inhibitors of cytokine-induced beta cell apoptosis, primary screen, luminescence. INS-1E cytokine-induced death, ATP luminescence, 48 h; percent of positive-control rescue, neutral wells zero. protection from apoptosis, % (test concentration not listed). 300,000 tested, 0.8% active. AID 435005, 2010;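 active = all replicates at 75% or more, or half of them and the mean; inconclusive = half reach 75% but not the mean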;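 note: 0% = cytokine-treated negative control wells and 100% = positive control rescue; higher means more ATP so stronger rescue from cytokine killing; wells of about 40 µL received 100 nL stock; the first replicate is given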
Calb FLC – C. albicans growth inhibition with fluconazole, primary screen, CaCi-2 strain, Alamar Blue fluorescence. C. albicans CaCi-2 (fluconazole-resistant clinical isolate) + fluconazole, 48 h. growth inhibition, % (concentration not given with the values). 300,000 tested, 0.57% active. AID 1979, 2009;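 active = most replicates above 75%; inconclusive = exactly half above 75%; inactive = most below 75%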;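 note: all wells also contain fluconazole at 8 µg/ml as a sub-toxic cotreatment; 0% = median of DMSO wells and 100% = median of geldanamycin control wells; wells of about 8 µL received 7.5 nL stock; the first replicate is given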
Beta2AR agonist – beta2AR agonists driving receptor internalization, primary screen, cell-based, FAP fluorogen, flow cytometry | response, % (concentration not given with the values) | AID 504454, 2011 | Am2.2-beta2AR cells; reference of the scale not given here | 340,000 tested, 0.43% active;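 active = response above a set limit, near 3 SD of response in nonfluorescent compounds, cut at about 42% in these data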;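 note: stock transfer was 100 nL into about 11 µL; a reference agonist was the positive control; negative values mostly stem from fluorescent compounds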
T cruzi repl – inhibitors of intracellular T. cruzi growth, primary screen, luminescence, NIH3T3 host cells. inhibition, % (no concentration beside the values). T. cruzi beta-gal in NIH3T3, 90 h. AID 1885, 2009. 300,000 tested, 1.4% active;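 active = mean inhibition across valid replicates above about 55%, limit read from the data; inconclusive = mean below that limit but half or more replicates reach it; inactive = mean below it, under half of replicates reach it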;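 note: signal also drops with host cell toxicity which is not excluded here; 0% = plate median of DMSO wells and 100% = zero luminescence signal; higher percent means less beta-gal luminescence so fewer parasites; stock transfer was 50 nL into about 50 µL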
LANA-H2A inh – blockers of LANA interaction with H2A/H2B – biochemical, FP readout, HTS, primary screen; Protein LANA1 (Human herpesvirus 8 type P (isolate GK18)), Q9QR71; cell-free LANA-H2A/H2B peptide, fluorescence polarization; inhibition, % (concentration not given with the values); 320,000 tested, 0.6% active; in the data active = inhibition mostly above about 10%, no sharp cut-off; inactive = mostly below about 6.7%;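 note: stock transfer was 7.5 nL into about 10 µL; 0% = median of vehicle wells and 100% = median of positive control wells; one replicate is shown; the record names a cut of 25% in any replicate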
Target sequence (Q9QR71 whole entry, looked up): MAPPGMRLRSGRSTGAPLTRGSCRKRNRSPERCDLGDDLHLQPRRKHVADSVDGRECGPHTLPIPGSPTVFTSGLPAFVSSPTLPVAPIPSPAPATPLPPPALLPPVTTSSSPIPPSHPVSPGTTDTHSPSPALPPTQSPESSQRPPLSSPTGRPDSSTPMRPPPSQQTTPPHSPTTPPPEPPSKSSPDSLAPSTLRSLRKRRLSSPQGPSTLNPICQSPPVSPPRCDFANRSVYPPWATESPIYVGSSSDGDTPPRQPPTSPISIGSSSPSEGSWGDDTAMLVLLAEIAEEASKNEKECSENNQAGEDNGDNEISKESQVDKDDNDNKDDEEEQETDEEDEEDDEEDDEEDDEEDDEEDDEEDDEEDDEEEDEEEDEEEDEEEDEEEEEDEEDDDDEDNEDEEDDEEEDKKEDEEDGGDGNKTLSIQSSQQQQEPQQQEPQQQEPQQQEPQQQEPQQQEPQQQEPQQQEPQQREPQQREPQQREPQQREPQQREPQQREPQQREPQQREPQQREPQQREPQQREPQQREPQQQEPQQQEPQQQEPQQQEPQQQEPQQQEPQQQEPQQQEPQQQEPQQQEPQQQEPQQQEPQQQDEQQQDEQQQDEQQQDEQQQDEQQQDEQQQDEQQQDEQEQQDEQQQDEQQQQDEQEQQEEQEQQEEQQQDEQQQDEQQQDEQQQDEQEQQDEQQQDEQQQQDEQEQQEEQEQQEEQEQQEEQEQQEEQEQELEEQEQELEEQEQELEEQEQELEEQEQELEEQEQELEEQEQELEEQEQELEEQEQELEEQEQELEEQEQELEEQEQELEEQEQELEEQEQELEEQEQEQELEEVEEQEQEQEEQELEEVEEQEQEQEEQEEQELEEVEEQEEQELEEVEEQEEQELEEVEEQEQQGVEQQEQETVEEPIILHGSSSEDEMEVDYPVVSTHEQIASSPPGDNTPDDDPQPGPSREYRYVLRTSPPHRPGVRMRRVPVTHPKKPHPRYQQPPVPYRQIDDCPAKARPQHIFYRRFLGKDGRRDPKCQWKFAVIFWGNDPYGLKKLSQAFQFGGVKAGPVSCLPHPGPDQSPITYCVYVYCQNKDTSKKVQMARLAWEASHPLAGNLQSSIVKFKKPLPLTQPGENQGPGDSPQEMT
Bfl-1 A1 inh – caspase 3/7 activation in MEF A1-2A-BIM cells, primary screen, A1 inhibitor project, cell-based, luminescence, HTS; 330,000 tested, 0.066% active; Caspase-Glo 3/7 luminescence, 3 h; percent of clofoctol response, vehicle zero; caspase activation, % (no concentration beside the values);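 active = over half of replicate activation scores above 10%, or exactly half above 10 with the replicate mean above 10; inconclusive = replicate mean below 10 yet half the replicates above 10; inactive = over half of replicates below 10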;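 note: wells of about 30 µL received 50 nL stock; many hits fall short of the cut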
RanGTP-Imp inh – inhibitors of RanGTP-importin-beta interaction, primary screen, biochemical, FRET, CFP-Ran, YFP-importin-beta, homogeneous | cell-free CFP-Ran/YFP-importin-beta FRET ratio | AID 2216, 2009 | 300,000 tested, 1.1% active | inhibition, % (test concentration not listed) | Ran GTPase (GTP-bound) - importin-beta complex;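 active = most replicates above 15%; inconclusive = exactly half above 15%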;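 note: 0% = DMSO wells and 100% = Ran loaded with GDP instead of GTP; wells of about 40 µL received 100 nL stock; the first replicate is given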
UCH37 inh – inhibitors of human UCH37 deubiquitinase, primary screen, biochemical, Ub-AMC cleavage, fluorescence. Ubiquitin carboxyl-terminal hydrolase isozyme L5 (Homo sapiens), Q9Y5K5. purified proteasome/UCH37. inhibition, % (test concentration not listed). 330,000 tested, 0.33% active;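 active = mean of two replicates above 20%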;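 note: 0% = compound-free wells with enzyme and 100% = wells lacking proteasome; stock transfer was 100 nL into about 20 µL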
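Material: human UCH37 enzyme supplied as purified proteasome complex. Measure: % inhibition of Ub-AMC cleavage fluorescence. Medium: pH 7.4 Tris-HCl (50 mM) with ovalbumin, ATP-MgCl2, DTT. Times: 30 min preincubation with enzyme, 25 min cleavage at room temperature. Detection: AMC fluorescence intensity at 355/460 nm.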
* marks the source's active call; other numbers are inactive results; ? = inconclusive; / = not tested or not shown.

Under each structure: Beta apoptosis, Calb FLC, Beta2AR agonist, T cruzi repl, LANA-H2A inh, Bfl-1 A1 inh, RanGTP-Imp inh, UCH37 inh
CCC(C)(C)n1nnnc1C(c1cc(OC)c(OC)c(OC)c1)N1CCN(c2ccccc2)CC1 (configuration not stated)
  6.3, 4.1, 8.2, 13.2, -1.4, -0.1, -2.0, 2.9
S=C(Nc1ccc(N2CCOCC2)cc1)Nc1ccc2snnc2c1
  -2.9, 12.2, 2.9, -10.1, -0.7, 0.0, ?, 2.0
CCOC(=O)c1sc(NC(=O)CSc2ncccn2)nc1C
  -1.5, 16.0, 3.5, -3.8, 0.8, 0.2, 5.6, 2.8
CCC(C)c1ccc(NC(=O)Nc2cnccn2)cc1 (configuration not stated)
  6.6, 27.8, 18.0, 9.9, -2.6, 0.5, 1.9, 3.0
O=C1[C@H]2[C@H](ON3CCCC[C@H]23)C(=O)N1c1ccc(Cl)cc1
  -1.9, -8.8, -3.9, -13.1, -3.6, 0.2, -3.5, 2.8
CCC(=O)NC(=S)Nc1ccccc1C(=O)OC
  6.4, 2.7, -1.4, -17.4, 0.9, 0.9, 8.0, 6.7
CCOC(=O)C1(CCSC)NC(c2ccco2)C2C(=O)N(CC)C(=O)C21 (configuration not stated)
  -9.4, 43.4, 5.5, -3.7, -0.8, -1.2, 1.8, -0.2
O=C(Cc1cccs1)Nc1cc(S(=O)(=O)N2CCCCC2)ccc1Cl
  -3.2, /, -2.9, /, 81.6*, 0.9, /, 1.1
O=C(CC1NC2CCCCC2NC1=O)Nc1ccc2c(c1)OCO2 (configuration not stated)
  2.5, 0.9, -0.8, -3.1, -1.5, 0.7, -0.7, 5.3
COC(=O)COn1c(-n2nc(C)cc2C)nc2ccccc2c1=O
  3.0, 2.9, 4.1, -28.4, -2.3, 0.7, 8.4, 4.9
Cc1cccc(NC(=O)c2cccnc2Cl)n1
  -7.0, 0.4, 0.0, -10.4, 0.5, 0.2, 4.2, -23.8
COc1ccc(Oc2cnc3ccccc3n2)cc1
  -5.1, 2.1, 1.1, -4.6, 4.5, -0.9, -4.9, -0.2
CCOC(=O)CN1C(=O)C(=O)N(Cc2c(Cl)cccc2Cl)C1=O
  -4.0, -1.4, -31.7, -4.9, 5.6, -0.8, -2.5, 1.8
CS(=O)(=O)c1ccc2nc(NC(=O)C3CCCCC3)sc2c1
  -2.3, 5.4, 1.9, 9.6, -3.2, 0.4, 0.7, 0.6
Cc1c(O)c2ccccc2oc1=O
  0.0, -0.9, 6.3, -5.4, -1.8, 0.2, 2.0, -0.2
CN(C)S(=O)(=O)c1ccc(N2CCCC2)c(C(=O)Nc2nc(-c3ccc(F)c(F)c3)cs2)c1
  -14.1, -32.0, -1.4, 42.5, 6.2, 0.5, 0.8, -10.2
O=C(Nc1nc2ccc(F)cc2s1)c1ccccn1
  75.7*, 9.5, /, 51.9, 0.6, 0.3, 3.5, -2.6
COc1cc(OC)cc(C(=O)N[C@H](C(=O)Nc2nc(-c3cc(OC)ccc3OC)cs2)C(C)C)c1
  -5.5, -7.4, -1.4, 42.3, 2.3, 0.2, 1.9, -1.9
CC1CCC(C(C)C)C(OC(=O)Cn2nnc3c(cnn3-c3ccccc3)c2=O)C1 (configuration not stated)
  -1.6, -1.4, -10.3, 32.2, -3.4, -0.2, ?, -8.7
CCSc1nnc(NC(=O)C2CCCCC2C(=O)O)s1 (configuration not stated)
  /, -5.3, 12.2, -9.9, -1.5, 0.8, 1.7, 1.5

Entries of single compounds as entered above. Order of screens: Beta apoptosis, Calb FLC, Beta2AR agonist, T cruzi repl, LANA-H2A inh, Bfl-1 A1 inh, RanGTP-Imp inh, UCH37 inh
COc1ccc(Oc2cnc3ccccc3n2)cc1 in the list: -5.1, 2.1, 1.1, -4.6, 4.5, -0.9, -4.9, -0.2
CN(C)S(=O)(=O)c1ccc(N2CCCC2)c(C(=O)Nc2nc(-c3ccc(F)c(F)c3)cs2)c1 in the list: -14.1, -32.0, -1.4, 42.5, 6.2, 0.5, 0.8, -10.2
CCOC(=O)CN1C(=O)C(=O)N(Cc2c(Cl)cccc2Cl)C1=O in the list: -4.0, -1.4, -31.7, -4.9, 5.6, -0.8, -2.5, 1.8

Additional results
Under each structure: Beta apoptosis, Calb FLC, Beta2AR agonist, T cruzi repl, LANA-H2A inh, Bfl-1 A1 inh, RanGTP-Imp inh, UCH37 inh
CCC(C)[C@H](NC(=O)NCc1ccc(S(N)(=O)=O)cc1)C(=O)O (some centres not stated)
  -0.3, 0.4, 1.4, -8.2, -1.7, 0.3, -1.8, -0.1
CCCNc1nc(C)cc(-c2cc(C(=O)Nc3ccccc3)on2)n1
  -6.0, 7.1, -3.7, 6.4, -0.7, 0.5, -4.3, -2.8
Cc1ccc(S(=O)(=O)CCC(=O)Nc2nc(-c3ccccn3)cs2)cc1
  -15.4, /, -10.8, /, -2.5, 1.5, /, 0.7
O=C(CN1CCCC1)N1CCN(c2ccccc2)CC1
  0.9, 9.8, -2.0, -17.6, -4.9, -0.6, 0.9, -2.0
O=C(CCN1C(=O)C2C3C=CC(C3)C2C1=O)Nc1c(F)cccc1F (configuration not stated)
  0.9, -6.8, 2.6, -19.0, -2.5, 0.0, -3.1, 3.5
CCN(CC)C(=O)CSc1nnc(CNc2ccc(F)cc2)n1-c1ccccc1
  2.2, -6.7, -11.5, 9.7, 2.3, 0.1, 2.5, 0.7
O=C(C1CCN(S(=O)(=O)c2ccccc2)CC1)N1CCN(c2ccccc2F)CC1
  -1.0, /, -2.7, /, -1.4, -0.4, /, -0.7
COc1ccc(N(CC(=O)NCCc2ccccc2)C(=O)CCC(=O)Nc2nccs2)c(OC)c1
  1.6, 4.6, -6.9, -1.8, 2.3, 0.1, 2.7, 0.0
COc1ccc(CN(C)S(=O)(=O)c2nnc(NC(=O)c3cccc(F)c3)s2)cc1OC
  15.9, 10.9, 7.2, 5.6, 1.3, -0.1, 0.4, -1.2
COc1ccc(CN2CCN(Cc3ccc(C)cc3)C(CCO)C2)cc1OC (configuration not stated)
  -2.9, -9.7, -4.2, 4.6, 1.9, 1.1, 10.3, 4.1
c1coc(CNC2CCCCCCC2)c1
  6.5, -0.3, 3.5, -14.0, -1.9, 0.2, ?, 0.3
COc1ccc(N2CCN(S(=O)(=O)c3ccc4c(c3)NC(=O)CS4)CC2)cc1
  -5.0, -7.7, 8.1, -12.5, 5.0, 0.1, 1.6, 2.6
O=C(O)CCN1C(=O)C2C3CC(C2C1=O)C1C(c2ccccc2)c2sc(=O)[nH]c2SC31 (configuration not stated)
  -4.8, ?, -6.6, -0.2, -7.5, -0.5, 21.0*, 3.6
Cc1cccc(S(=O)(=O)NCC2CCCO2)c1 (configuration not stated)
  /, -4.9, -1.1, -6.2, -29.4, 0.7, 1.9, -0.9
COc1ccc(Cl)cc1S(=O)(=O)NC(C)C(=O)NCc1ccncc1 (configuration not stated)
  -11.8, 6.9, 2.7, -10.6, 2.9, 1.0, 4.0, -2.1
NS(=O)(=O)c1cc2c(cc1Cl)NC(CSCc1ccccc1)=NS2(=O)=O
  -17.4, /, -9.2, 0.7, -12.8, 1.1, 0.4, 2.1
Cc1ccccc1CNC(=O)CCCn1ncn2c(cc3occc32)c1=O
  -5.3, 2.3, -25.5, -1.4, 1.6, 0.1, -0.4, -1.5
CC(=O)CCC(=O)N1CCCC(CNC(=O)c2ccc(-c3ccccc3)cc2)C1 (configuration not stated)
  1.1, 16.9, 4.5, 4.5, -1.2, 0.3, -2.1, 1.8
Cc1c(NC(=O)CSc2n[nH]c(=O)n2-c2ccccc2)c(=O)n(-c2ccccc2)n1C
  /, -3.5, -7.5, -24.7, -7.4, -0.7, 0.1, 4.4
CC(C)N(CC(N)=O)c1ccc(S(=O)(=O)N2CCCC2)cn1
  -2.1, /, -4.0, /, -0.8, 1.2, /, -3.8
CCN(C(=O)c1cc2c(=O)[nH]c3ccc(C)cc3c2s1)c1ccccc1F
  -4.4, -0.4, -8.0, 40.4, -1.1, -1.1, 2.2, -54.4
O=C(NCC1CCCO1)c1csc2c1CCCCC2 (configuration not stated)
  -2.8, 4.8, -9.6, -12.1, 0.2, 0.2, 0.0, 0.0
Cc1c(-c2ccc(Cl)cc2Cl)nc2ccccc2c1C(=O)NCCN1CCOCC1
  0.6, 5.5, -2.7, -9.0, -3.5, 0.2, -0.8, 1.2
COc1ccc(OCCn2cc(C=O)c3ccccc32)cc1
  -0.7, -0.5, 5.2, 12.0, 1.0, -1.7, 0.2, 6.4
CC(C)OC(=O)C1C(=O)CC(C)(O)C(C(=O)OC(C)C)C1c1cccc([N+](=O)[O-])c1 (configuration not stated)
  6.8, 8.6, 4.2, 11.5, -0.9, 1.2, -2.8, -1.2
CCCCn1c(CN2CCN(c3ccc(F)cc3)CC2)nc2c1c(=O)n(C)c(=O)n2C
  8.2, 0.5, 0.1, -12.0, 1.1, 0.0, -3.6, 2.2
CCOC(=O)c1[nH]ncc1CN1CCCC(C(=O)c2ccc(OC)c(OC)c2)C1 (configuration not stated)
  -3.9, -15.1, 47.1*, 12.6, 1.7, 1.2, -0.4, 0.0
CCOc1ccccc1-c1nc(-c2ccc(C)nc2OC)no1
  -2.2, -1.2, -1.7, -13.4, -0.2, -0.6, -2.6, 0.1
Cc1ccccc1OCc1nc(-c2ccc(NC(=O)c3ccc4c(c3)OCO4)cc2)no1
  17.5, -17.8, -5.4, /, -3.0, -10.4, -0.8, -0.6
Cc1ccc(OCc2cc(C(=O)N3CCc4[nH]cnc4C3c3ccccn3)no2)cc1C (configuration not stated)
  -4.0, -1.7, -6.5, -17.4, 2.5, 0.2, 5.2, 3.9
COc1ccc(N=C/C=C2/C=C(c3ccccc3)OC(C)(C)O2)cc1
  -13.9, -17.0, 9.9, 0.8, -4.0, -0.1, -0.9, 5.4
CCN1CCN(C(CNS(=O)(=O)c2cccs2)c2cccnc2)CC1 (configuration not stated)
  1.3, 6.1, -0.2, 9.7, 3.9, -0.2, -0.2, -0.2
Cc1nnc(N/N=C/c2cc(C)n(-c3ccc(F)cc3)c2C)n1N
  1.9, 38.4, -2.7, -14.1, 7.9, 0.1, 3.8, /
CC(C)N1C(=S)SC2CS(=O)(=O)C=C21 (configuration not stated)
  -3.5, 4.8, 2.5, -7.4, 2.4, -0.3, 0.6, 0.4
c1ccc2c(-c3nnc4n3CCCCC4)c[nH]c2c1
  -2.9, -15.9, 4.8, -26.0, -2.4, 1.1, -3.0, 4.2
CCOC(=O)C1C(c2cc(OC)c(O)c(OC)c2)NC(=S)NC1(O)C(F)(F)F (configuration not stated)
  4.0, 12.8, -2.1, -4.0, 1.4, 0.0, -4.6, 3.6
